# Calb biofilm kill: clotrimazole potentiators killing C. albicans biofilm, primary screen, 4-compound mixtures; hit rate 0.02% among 120,000; C. albicans biofilm persisters + clotrimazole, fluorescence viability; primary screen in compound mixtures of four per well; inhibition, % at 7.6 µM;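 active means inhibition above 30.3% in the primary screen of four-compound pools, then above 30% when the compound was retested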;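 further: compounds exposed to preformed 24 h biofilms for 48 h; the number belongs to the whole pool; some results filed as inactive read as strong as hits; inactives centre near 12; 0% = biofilm with clotrimazole alone and 100% = kill control; retested singly at about 60 µM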
#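 Incubation: 24 h biofilm formation, then 48 h compound exposure, 37 °C | Material: C. albicans biofilms | Buffer or medium: RPMI/MOPS medium, pH 7.0 | Measured by: 2-h Alamar Blue fluorescence, 535/590 nm excitation/emission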
# Numbers without * were called inactive. These rows are one share of the data, so the mix of outcomes need not match the whole.
# The opening 2 records, ahead of the listing:
canonical_smiles,Calb biofilm kill
CN(Cc1nc2c(s1)CCCC2)C(=O)CCc1nnc(-c2ccc3c(c2)OCO3)o1,10
CCCCOc1ccc(NC(=O)c2cc(F)c(F)cc2Cl)cc1,-1

# This part in full, repeating the preview:
canonical_smiles,Calb biofilm kill
CN(Cc1nc2c(s1)CCCC2)C(=O)CCc1nnc(-c2ccc3c(c2)OCO3)o1,10
CCCCOc1ccc(NC(=O)c2cc(F)c(F)cc2Cl)cc1,-1
CCc1nnc(NC(=O)COc2ccc(N(C)S(=O)(=O)c3ccc(C)cc3)cc2)s1,9
CCc1ccc(C(=O)COC(=O)CCc2nc3ccccc3c(=O)[nH]2)cc1,14
Cc1nccn1CC(=O)N/N=C/c1cccc(O)c1,13
Cc1ccccc1/C=C/c1nc2ccccc2c(=O)[nH]1,18
COc1ccc(-n2cnc3sc4c(c3c2=O)CCCC4)cc1,12
CCC(CC)c1nnc(NC(=O)C2CCCO2)s1 (centres undefined),18
O=C1NC(c2ccccc2Cl)=N/C1=C/c1ccco1,11
O=C(NNc1ccccn1)c1ccccc1CC[N+](=O)[O-],8
COc1ccc(CCNC(=O)COC(=O)Cn2cnc3ccccc3c2=O)cc1,11
Cc1cc(C)cc(NC(=S)N(CCN(C)C)C(C)c2cccnc2)c1 (centres undefined),10
O=S(=O)(NC1c2cccc3cccc(c23)C1Sc1ncccn1)c1ccccc1 (centres undefined),14
O=C(NC1CCCCC1)c1ccccc1NC(=O)C1CC1,10
CC(C(=O)NCC1CCCO1)n1cc([N+](=O)[O-])cn1 (centres undefined),15

# Pulled by structure from above (7):
canonical_smiles,Calb biofilm kill
Cc1ccccc1/C=C/c1nc2ccccc2c(=O)[nH]1,18
CC(C(=O)NCC1CCCO1)n1cc([N+](=O)[O-])cn1 (centres undefined),15
CCc1ccc(C(=O)COC(=O)CCc2nc3ccccc3c(=O)[nH]2)cc1,14
COc1ccc(-n2cnc3sc4c(c3c2=O)CCCC4)cc1,12
O=C1NC(c2ccccc2Cl)=N/C1=C/c1ccco1,11
O=C(NC1CCCCC1)c1ccccc1NC(=O)C1CC1,10
CN(Cc1nc2c(s1)CCCC2)C(=O)CCc1nnc(-c2ccc3c(c2)OCO3)o1,10

# Next part
canonical_smiles,Calb biofilm kill
COc1ccc2c(N)c(C(=O)NN)[nH]c2c1,13
O=C(Nc1nnc(-c2ccco2)o1)c1ccc(S(=O)(=O)N2CCCC2)cc1,7
COc1ccc(-n2c3c(cc(C(=O)Nc4cccc(C)n4)c2=O)C(=O)CC(C)(C)C3)cc1,22
O=C(COC(=O)c1ccco1)NCc1ccc(F)cc1,5
Cc1ccccc1CN1CCSc2sccc2C1=O,5
COc1ccc(N(C(=O)Cn2nnc(-c3ccccc3F)n2)C(C(=O)NCC2CCCO2)c2ccc(Cl)cc2)cc1 (centres undefined),33
CC1=NNC(=O)C1CCC(=O)N/N=C(\C)c1ccccc1 (centres undefined),23
N#Cc1ccc(N2CCOCC2)c([N+](=O)[O-])c1,8
CCOC(=O)/C(C#N)=C/c1ccc(N2CCCCC2)cc1,16
Cc1ccc2[nH]c(=O)c(CN3CCCCC3)c(-c3ccccc3)c2c1,19
COc1cc(C)c(S(=O)(=O)N2CCOCC2)c(C)c1C,11
Cn1ccc(NC(=O)Nc2ccc(Cl)cc2)n1,16
Nc1cccc(Oc2ccc3c(c2)C(=O)N(CC2CCCO2)C3=O)c1 (centres undefined),-5
Cc1ccsc1C(=O)N1CCCC(CCC(=O)N2CCN(c3ccccn3)CC2)C1 (centres undefined),8
C=C(C)C(=O)Nc1cccc(C2=NOC3(C2)C[C@@H](C(N)=O)N(C(=O)CCCCC)C3)c1 (some centres undefined),17
OCCN(CC(O)COc1ccccc1)CC(O)Cn1ccc2ccccc21 (centres undefined),4
CCOc1cc(C(=O)OC(C)C(=O)Nc2ncc(Cl)cc2Cl)ccc1OCC(=O)N1CCOCC1 (centres undefined),8
CCN1CCN(c2cc(C)c3cc(NC(=S)NCc4cccs4)ccc3n2)CC1,10
Cn1c(O)c(C2=c3ccccc3=NC2=O)sc1=Nc1ccc(Cl)cc1,18
Cc1ccc(NC(=O)CSc2nnc(C)c(=O)[nH]2)cc1C,14
CCOc1ccc(NC(=O)CN2C(=O)S/C(=C/c3cccn3C)C2=O)cc1,31
COc1ccc2c(c1)CC/C(=C\c1ccc(C)o1)C2=O,19
Cc1cc(CNC(=O)c2cccc([N+](=O)[O-])c2C)c2ccccc2n1,0
O=C(Nc1ncc2c(n1)-c1ccccc1OC2)c1ccc(F)cc1,16
COC(=O)c1cc(S(=O)(=O)Nc2nn(C)c3ccccc23)oc1C,6
Cc1ccc(OCc2cn3cccnc3n2)cc1,8
CC(C)OCC1CC(CC(=O)NC(=S)Nc2cccc([N+](=O)[O-])c2)C(=O)O1 (centres undefined),12
COc1ccc(N2CC(C(=O)N/N=C/c3cccs3)CC2=O)cc1 (centres undefined),20
O=C(NCc1ccccc1)C(=O)NCC1COc2ccccc2O1 (centres undefined),9
CCn1cc(C(=O)N(CCC(C)C)c2c(N)n(Cc3ccccc3)c(=O)[nH]c2=O)c(=O)c2ccc(C)nc21,15
CC(C)(C)c1ccc(S(=O)(=O)N2CCC(CO)(CC3CCCCO3)CC2)cc1 (centres undefined),12
N/C(Cc1ccc([N+](=O)[O-])cc1)=N\OC(=O)CC1CCCCC1,5
Cc1ccc(S(=O)(=O)N2CCN(CC(=O)Nc3ccc(N4CCOCC4)cc3)CC2)cc1C,8
CC(C)NC(=O)CSc1nc(N)c(NC(=O)c2ccccc2F)c(=O)[nH]1,9
O=Cc1cccn1-c1ccccc1,11
CCN(CC)CCOCCOC(=O)C(CC)(CC)c1ccccc1,16
O=C(CS(=O)(=O)Cc1ccccc1)NCc1ccco1,4
CCCSc1nc2c3c(sc2c(=O)[nH]1)CC(C)(CC)OC3 (centres undefined),17
NNC(=O)c1cccc(O)c1,16
COc1ccc(-n2c(C)cc(-c3csc(NC(=O)c4ccc(S(=O)(=O)N(C)C)cc4)n3)c2C)cc1,6
Cc1cc(C)cc(NC(=O)N(CCC#N)Cc2cccs2)c1,35
Cc1ccc(-c2cc(C(=O)Nc3c(C)n(C)n(-c4ccccc4)c3=O)no2)cc1,7
O=C(COC(=O)CCSc1ccccc1)NCc1ccc(F)cc1,4
O=S(=O)(c1ccccc1)c1nc(-c2ccco2)oc1Nc1ccccc1,11
NC(N)=Nc1ccc(N=C(N)N)cc1,16
CC1CCc2c(sc3nc(CN4CCN(S(=O)(=O)c5ccccc5[N+](=O)[O-])CC4)[nH]c(=O)c23)C1 (centres undefined),-3
COc1cccc(C(=O)CC(=O)C(=O)Nc2cc(Cl)c(OC)cc2OC)c1,13
O=C(CCS(=O)(=O)c1ccccc1)N1CCOCC1,13
CC(C)CCOc1ccc(/C=C2\CCn3c2nc2cc(C(=O)O)ccc2c3=O)cc1,0
CN1C(=O)CC(C(=O)Nc2ccccc2F)SC1=Nc1ccc2c(c1)OCO2 (centres undefined),14
CCOC(=O)C1C2C=CC3(CN(Cc4ccccc4)C(=O)C13)O2 (centres undefined),6
N#Cc1cccc(NC(=O)COC(=O)c2ccccc2Sc2ccccc2C#N)c1,9
C/C=C\C=C\C(=O)Nc1cccc(C2=NOC3(C2)C[C@@H](C(N)=O)N(C(=O)C(c2ccccc2)c2ccccc2)C3)c1 (some centres undefined),17
Cc1ccc(-n2cc[nH]c2=S)cc1C,15
COc1cccc(Cn2cc(C(=O)NCCN(C)C)nn2)c1,16
CC1(C)CC(=O)C(C(=S)Nc2ccc(F)cc2)=C(NCCN2CCOCC2)C1,14
Cc1ccc(/C=C/C(=O)Nc2nnc(SCc3ccc(C#N)cc3)s2)o1,-1
Cc1nc2ccc(NC(=S)N3CCCC3)cc2nc1C,22
COCCOc1cc(N(CC(=O)N(C)C)S(=O)(=O)c2ccccc2)c(Cl)cc1Cl,21
O=C(Cc1nnc(NC(=O)Nc2ccc(F)cc2)s1)Nc1ccccc1,0

# (continued)
canonical_smiles,Calb biofilm kill
Cc1cccc(N2C(=O)C(CC(=O)Nc3cccc(F)c3)N(CCc3ccncc3)C2=O)c1 (centres undefined),14
CCN(CC)C(=O)c1[nH]cnc1C(=O)N[C@@H](CC(C)C)C(=O)OC(C)(C)C,18
Cc1c(C(=O)/C=C/N(C)C)nnn1-c1ccc(F)c(Cl)c1,11
CC(C)C[C@H](NC(=O)CCn1nnc2ccccc2c1=O)C(=O)O,25
CN1CCN(NC(=O)CN2C(=O)S/C(=C\c3c(Cl)cccc3Cl)C2=O)CC1,11
COc1cc(/C=C/C(=O)OCC(=O)N2CCC(Cc3ccccc3)CC2)ccc1O,12
O=C(NC(NC(=S)Nc1ccc(Cl)cc1)C(Cl)(Cl)Cl)c1ccco1 (centres undefined),-5
CCOC(=O)N1CCN(C(=O)c2cccn3c(=O)c4c5c(sc4nc23)CCCC5)CC1,14
O=C(COC(=O)CNC(=O)c1cccc([N+](=O)[O-])c1)Nc1ccccc1OC(F)F,-12
CCO[C@H]1OC(C(=O)NC2CC2)=C[C@@H](c2ccccc2)[C@@H]1CCCO,31
C=CCn1c(-c2ccc(F)cc2)n[nH]c1=S,17
O=C(Nc1ccc2c(c1)OCO2)N1CCN(Cc2ccco2)CC1,7
O=C(COC(=O)CCC1CCCC1)Nc1nc2c(F)c(F)c(F)cc2s1,18
CCCn1nc(C(=O)N2CCCc3ccccc32)c2ccccc2c1=O,15
O=[N+]([O-])c1cccc(-c2cc3cccc[n+]3cc2-c2cccc([N+](=O)[O-])c2)c1,7
COc1ccc(-n2c(=O)c3c4c(sc3n(CC(=O)NCC3CCCO3)c2=O)CCCC4)c(OC)c1 (centres undefined),29
CCOc1ccc(NC(=S)NCCCN2CCN(C3CCCCC3)CC2)cc1,17
CCOc1ccccc1C(=O)NCC(=O)O,5
Cc1cc([N+](=O)[O-])cc2c1-c1ncccc1C2=Nc1ccccc1,0
Cc1c(NC2=CC(=O)CC(C)(C)C2)c(=O)n(-c2ccccc2)n1C,12
OC1(CNCc2cn[nH]c2-c2cc3ccccc3o2)CCCCC1,26
O=c1c2cc([N+](=O)[O-])ccc2nc(CN2CCN(c3ccccn3)CC2)n1-c1ccccc1F,5
O=C1CNC(=O)/C(=C/c2cccs2)N1,11
COc1cc(/C=N/NC(=O)c2cccc([N+](=O)[O-])c2)ccc1O,11
COc1ccc2nc(/N=C/c3c(C)[nH]n(-c4ccc(C)cc4)c3=O)sc2c1,1
O=C(CSCc1ccc(Cl)cc1)N1CCOCC1,12
CCOC(=O)N1CCN(C(=O)CSc2ccc(-c3ccc(OC)c(OC)c3)nn2)CC1,7
Cc1ccc(NC(=S)N2CCN(Cc3ccccc3)CC2)cc1,14
O=C(COC(=O)C1CCC1)Nc1ccccc1Sc1ccccc1,9
Cc1ccc(Sc2ncccc2C(=O)O)cc1,6
CCCCCC1CCC(c2n[nH]c(=S)n2C)CC1 (centres undefined),-11
CCOC(=O)C1CCN(CC(=O)N(CC(C)C)c2c(N)n(CC(C)C)c(=O)[nH]c2=O)CC1,12
COc1cccc(CC2(CO)CCCN(Cc3sc(N4CCCC4)nc3Cl)C2)c1 (centres undefined),13
Cc1cc(C)n2nc(C(=O)OCC(=O)c3cc(C)n(CC4CCCO4)c3C)nc2n1 (centres undefined),19
CC(C)(C)N(Cc1ccccc1)C(=O)COC(=O)Cn1cnc2ccccc2c1=O,4
COc1cc(N(C(=O)Cc2cccs2)C(C(=O)NC2CCCCC2)c2cccc(OC)c2OC)ccc1-n1cnnn1 (centres undefined),9
S=C(Nc1ccc(Cl)cc1)NC1CCCCC1,19
O=C1[C@@H]2Cc3c([nH]c4ccccc34)[C@@H](c3ccccc3)N2C(=O)[C@@H]2Cc3c([nH]c4ccccc34)[C@@H](c3ccccc3)N12,5
COc1cccc(-c2nc3ccccc3c(=O)n2NC(=O)c2cccnc2Cl)c1,1
O=C(CCCCCn1nnc2ccccc2c1=O)N[C@H](C(=O)O)c1ccccc1,9
COc1ccc2c(c1)C(=NNC(=O)c1ccccn1)c1cc(OC)ccc1-2,15
COc1ccccc1NC(=O)COC(=O)C1CC2C=CC1C2 (centres undefined),3
COc1ccc(C(CC(=O)NCC(OC)OC)NS(=O)(=O)c2ccc(Cl)cc2)cc1 (centres undefined),12
COc1ccc(NC(=O)COc2ccc(N(C)S(=O)(=O)c3ccc(C)cc3)cc2)cc1,9
CN(C)CCCN(C(=O)COc1ccc(Cl)cc1)c1nc2c(F)cccc2s1,18
CC1(C)CC(NC(=S)Nc2ccc([N+](=O)[O-])cc2)CC(C)(C)N1,28
COc1ccc(-c2csc(N(Cc3ccco3)C(=O)c3cccs3)n2)cc1,11
COc1ccc(S(=O)(=O)N2CCCCC2)cc1-n1cnnn1,7
COc1ccc(C(=O)N2CC3(C)CC2CC(C)(C)C3)cc1OC (centres undefined),15
CCCc1cc(=O)[nH]c(SCc2ccc(F)cc2)n1,20
O=C(Nc1ccc(C(=O)N2CCOCC2)cc1)Nc1cccc2ccccc12,-7
CN(/N=C/c1ccc(Br)o1)C1=NS(=O)(=O)c2ccccc21,18
O=C(COC(=O)c1ccccc1O)NCCC1=CCCCC1,16
Cc1nn(CCc2nn[nH]n2)c2nc(-c3ccccc3)cc(C(F)(F)F)c12,13

# Screening data deposited in PubChem BioAssay by PCMD.
